Screening data (PubChem)
Pin1 inhibitor – qHTS Assay to Find Inhibitors of Pin1. Peptidyl-prolyl cis-trans isomerase NIMA-interacting 1 (Homo sapiens), Q13526. Pin1 FP peptide displacement, HiFluor488, 10 min. Potency, µM (titrated, usually from 115 µM), for inactives: top-dose activity, negative = inhibition, usual class: inhibitors. actives 0.009% (n = 390,000). AID 504891, 2011; active = well fitted inhibition curve with a large enough effect in the polarisation, with a control signal flat, not every such curve was filed as active; inconclusive = small, poorly fitted or top-dose-only effect, or effect the other way, or a change in a side signal; inactive = no such curve, though single readings can be large or run the other way; the % refers to the polarisation; note: potency is the fitted concentration of half-maximal effect; % is set by controls: 0 for no effect and ±100 for the full control effect
Target sequence (Q13526 whole entry, looked up): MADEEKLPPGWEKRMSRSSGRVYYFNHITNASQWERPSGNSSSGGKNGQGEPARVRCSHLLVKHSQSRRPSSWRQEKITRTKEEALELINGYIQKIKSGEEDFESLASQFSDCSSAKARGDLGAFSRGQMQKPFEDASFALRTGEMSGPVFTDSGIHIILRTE
G9a inh – qHTS Assay for Inhibitors of Histone Lysine Methyltransferase G9a; Histone-lysine N-methyltransferase EHMT2 (Homo sapiens), Q96KQ7; G9a H3K9 monomethylation, AlphaScreen, 2 h; Potency, µM (doses to about 102 µM), without a hit: at the top dose activity, negative = inhibition, hits mostly inhibitors; actives 8.8% (n = 350,000); AID 504332, 2011; note: potency is the fitted concentration of half-maximal effect; % is set by controls: 0 for no effect and ±100 for the full control effect; nearly all actives have a fitted effect of over 75% in size
Target sequence (Q96KQ7 913-1193 limits assumed): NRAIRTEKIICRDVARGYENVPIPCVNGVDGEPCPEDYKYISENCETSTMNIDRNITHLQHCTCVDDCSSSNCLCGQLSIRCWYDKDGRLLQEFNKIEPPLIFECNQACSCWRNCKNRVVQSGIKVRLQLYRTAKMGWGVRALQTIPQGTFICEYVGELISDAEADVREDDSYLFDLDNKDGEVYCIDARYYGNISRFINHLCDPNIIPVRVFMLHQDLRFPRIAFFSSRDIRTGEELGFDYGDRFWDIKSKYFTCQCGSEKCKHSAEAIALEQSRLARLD
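Compounds were preincubated with 20 nM G9a for 15 min, after which biotinylated H3K9 peptide (500 nM) and SAM (20 uM) started a 2 h room-temperature reaction. Monomethylated product was quantified by antibody-based AlphaScreen chemiluminescence.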
GLS inh – qHTS for Inhibitors of Glutaminase (GLS); GLS enzymatic activity, qHTS titration; actives 0.21% (n = 410,000); Potency, µM (top dose mostly 45.5 µM), for the others: at the highest dose activity change, negative = inhibition, actives largely listed as inhibitors; note: potency is the fitted concentration of half-maximal effect; % is set by controls: 0 for no effect and ±100 for the full control effect
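hKGA in 45 mM KH2PO4 pH 8.2, 0.02% Tween-20 with pin-transferred compounds; 1 mM L-glutamine (stock) plus glutamate oxidase/HRP/Amplex Red coupling added. Fluorescence read initially and after 30 min at RT.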
ERG-DNA inh – qHTS for Small Molecule Inhibitors of the ERG Ets/DNA interaction; AID 624246, 2012; Potency, µM (titrated, usually from 76.9 µM), for the others: at the top dose FP activity, negative = inhibition, hits mostly inhibitors; actives 0.028% (n = 370,000); Transcriptional regulator ERG (Homo sapiens), P11308; fluorescence polarization, His-ERG Ets domain / labelled DNA; active = well fitted inhibition curve with a large enough effect in the polarisation, with a control signal flat; inconclusive = small, poorly fitted or top-dose-only effect, or effect the other way, or a change in a side signal; inactive = no such curve, though single readings can be large or run the other way; the % refers to the polarisation;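 note: polarization taken with two DNA probes labelled with fluorescein and Texas red; potency is the fitted concentration of half-maximal effect; % of control where 0% means no effect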
Target sequence (P11308 whole entry, looked up, the tested form may be a part): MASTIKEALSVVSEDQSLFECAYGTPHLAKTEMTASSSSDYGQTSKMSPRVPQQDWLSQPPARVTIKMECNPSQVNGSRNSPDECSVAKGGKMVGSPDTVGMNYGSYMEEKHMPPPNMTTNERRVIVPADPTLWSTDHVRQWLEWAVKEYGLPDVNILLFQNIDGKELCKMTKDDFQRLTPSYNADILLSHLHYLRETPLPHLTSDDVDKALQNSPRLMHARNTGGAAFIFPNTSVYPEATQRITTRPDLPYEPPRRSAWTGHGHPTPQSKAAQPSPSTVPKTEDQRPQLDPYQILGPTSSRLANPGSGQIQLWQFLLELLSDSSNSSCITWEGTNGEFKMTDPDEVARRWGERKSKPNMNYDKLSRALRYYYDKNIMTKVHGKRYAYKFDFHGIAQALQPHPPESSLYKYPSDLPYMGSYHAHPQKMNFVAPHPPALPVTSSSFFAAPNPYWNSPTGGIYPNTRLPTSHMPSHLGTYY
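His-tagged ERG Ets domain (1 uM in the protein solution; 300mM KCl, 50mM Tris-HCl, 1mM EDTA, 1mM DTT, pH 7.5) received compound, then a probe mix of 5 nM fluorescein-DNA and 100nM Texas-615-DNA. Fluorescence polarization was read for both dyes.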
PGK inhibitor – qHTS Assay to Find Inhibitors of Phosphoglycerate Kinase; actives 0.043% (n = 380,000); AID 602233, 2012; Potency, µM (top dose mostly 57.5 µM), inactives show at the top dose activity change, negative = inhibition, hits mostly inhibitors; Phosphoglycerate kinase, glycosomal (Trypanosoma brucei brucei), P07378; PGK/GAPDH coupled, Kinase-Glo luminescence, 60 min; note: potency is the fitted concentration of half-maximal effect; % is set by controls: 0 for no effect and ±100 for the full control effect; nearly all actives have a fitted effect of over 60% in size
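Luminescent ATP detection (Kinase-Glo Plus) follows a 60-minute room-temperature incubation, with wells lacking PGK as controls. Buffer: 100 mM TEA (pH 7.6), 5 mM MgCl2, 0.01% Tween-20. Coupling enzyme GAPDH (100 nM final) supplies unstable 1,3-BPG in-well.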
PI4K2A block – qHTS for small molecular inhibitors of PI4K2A. Phosphatidylinositol 4-kinase type 2-alpha (Homo sapiens), Q9BTU6. activity change, negative = inhibition, % at 76.9 µM. purified PI4K2A, ADP-Glo luminescence, 1 h; hits give low values. actives 0.13% (n = 420,000); in the data active = activity change below about -50%; inconclusive = mostly about -30% to -49%;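 note: -100% = wells without enzyme as full effect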
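In this quantitative HTS, ADP production by PI4K2A was quantified luminescently after 1 h at ambient temperature; 100 microM adenosine served as plate-quality control.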
Starred values were filed as active, the others as inactive; i = inactive; ? = inconclusive; · = not tested or not shown; & = joins results of further samples; ! = not confirmed by another sample; [ ] = dose if it differs, or a comment. Unless noted, calls come from the whole dose curve; as a rule, active = well fitted curve in the direction sought with a large enough effect; inconclusive = small, poorly fitted or top-dose-only effect, or another doubt; inactive = no such curve, though single readings can be large; an effect the other way counts as inactive or inconclusive. Some of the compounds tested. The share of hits here may be higher or lower than overall.

SMILES	Pin1 inhibitor	G9a inh	GLS inh	ERG-DNA inh	PGK inhibitor	PI4K2A block
COc1cccc(CNc2ncc(-c3ccc(Br)cc3)n2C)c1	0.2%	20µM*	4.0%	3.3%	0.3%	3.5
Cc1cccc(C(=O)NN/C=C/C(=O)c2ccccc2)c1	1.8%	·	-23.7%	-13.9%	i	-2.9
Nn1c(SCC(=O)Nc2nccs2)nnc1-c1ccccn1	1.0%	?	0.7%	-11.7%	i	0.4
CCOC(=O)c1c(NC(=O)CN(C)C2CCN(C)CC2)sc(C(=O)Nc2ccccc2)c1C	6.0%	8.91µM*	-2.1%	-19.3%	0.4%	3.7
O=C(COC(=O)c1ccccn1)NC(=O)c1ccccc1	-2.0%	?	-11.9%	4.8%	i	3.1
CCOC(=O)c1c2c(c(=S)n(-c3ccccc3)c1N)CCC2	1.9%	25.1µM*	0.7%	5.5%	-2.2%	-2.9
O=[N+]([O-])c1ccc(COc2cccc(CNc3ccc(F)cc3)c2)cc1	-6.6%	?	15.1%	11.2%	-9.8%	-3.7
COC(=O)c1ccc(CSc2ccc3nnc(-c4ccccn4)n3n2)o1	1.8%	44.7µM*	6.8%	-1.1%	-6.7%	0.4
Cc1ccccc1-n1c(SCC(=O)Nc2ccc3c(c2)OCO3)nnc1-c1ccccn1	3.1%	?	2.2%	-5.4%	0.8%	-2.0
CC1CN(CCCCN2C(=O)c3ccccc3C2=O)CC(C)O1 (stereo not drawn)	-1.9%	3.16µM*	-0.8%	0.7%	-7.6%	1.0
COc1ccc(CCNC(=O)CNCC(c2ccccc2)N(C)C)cc1OC (stereo not drawn)	-5.4%	8.91µM*	3.3%	6.1%	i	-1.9
CC(=O)N1CCN(C(c2ccccc2)c2ccccc2)CC1	0.1%	·	-4.1%	-6.4%	-5.2%	-1.9

No new results follow: entries from further up.
SMILES	Pin1 inhibitor	G9a inh	GLS inh	ERG-DNA inh	PGK inhibitor	PI4K2A block
CC1CN(CCCCN2C(=O)c3ccccc3C2=O)CC(C)O1 (stereo not drawn)	-1.9%	3.16µM*	-0.8%	0.7%	-7.6%	1.0
COc1ccc(CCNC(=O)CNCC(c2ccccc2)N(C)C)cc1OC (stereo not drawn)	-5.4%	8.91µM*	3.3%	6.1%	i	-1.9
CC(=O)N1CCN(C(c2ccccc2)c2ccccc2)CC1	0.1%	·	-4.1%	-6.4%	-5.2%	-1.9

More structures
SMILES	Pin1 inhibitor	G9a inh	GLS inh	ERG-DNA inh	PGK inhibitor	PI4K2A block
C1=CC2CC1CC2CN1CCN(c2ccccc2)CC1 (stereo not drawn)	3.2%	?	0.5%	-1.1%	16.2%	3.0
COc1ccc(OCC#CCN2CC(C)OC(C)C2)cc1 (stereo not drawn)	-1.9%	14.1µM*	8.6%	-13.6%	11.8%	0.5
CC(=O)c1ccc2c3c(cccc13)C(=O)N(CCc1ccccc1)C2=O	-6.8%	·	4.4%	-8.4%	-4.6%	-3.3
CCCSc1nnc(N2C(=O)C(O)=C(C(=O)c3ccco3)C2c2ccccc2F)s1 (stereo not drawn)	?	·	21.8%	1.8%	-12.8%	-2.0
Cc1ccc(C(C)(C)C)c(OCCCn2ccnc2)c1	-5.5%	7.94µM*	3.9%	-7.4%	-5.3%	1.6
CC(C(=O)NC1CCCCC1)N1CCN(C)CC1 (stereo not drawn)	-7.4%	-122.8%[59 µM]	-3.9%	-0.6%	-1.4%	-5.6
Cn1c(-c2ccc(F)cc2)cnc1NCc1cc2c(cc1[N+](=O)[O-])OCO2	?	12.6µM*	1.7%	-5.2%	-8.6%	3.5
O=C(NCCN1CCCCC1)c1ccc(/C=N/O)nc1	-4.8%	-9.9%[0.501 µM]	16.3%	8.4%	i	-2.1
CCc1nc(C)ccc1OCC(=O)N(CC)CC	-6.5%	28.2µM*	21.7%	·	-9.4%	-1.3
Cc1ccc(CN2CCc3nc(N4CCN(c5ncccn5)CC4)ncc3C2)cc1	6.2%	20µM*	2.1%	11.6%	-6.5%	-8.9
CN1C(C(=O)Nc2ccccn2)=C(O)c2ccccc2S1(=O)=O	-8.6%	7.08µM*!	31.3%[activator]	-2.3%	-6.4%	-2.1&2.1&-3.3
Cc1ccc(CN=c2c([N+](=O)[O-])nn(-c3ccc4c(c3)OCCO4)n2O)cc1	-3.6%	?	15.4%	-1.3%	-6.5%	2.3
COc1ccc(CNCc2ccc([N+](=O)[O-])cc2)cc1OC	-0.3%	12.6µM*	1.4%	-0.1%	-9.5%	2.1
COc1cc(CN2CCN(C(=O)c3ccccc3F)CC2)cc(OC)c1OC	-13.1%	22.4µM*	-0.1%	0.3%	-4.3%	-0.6
CCN1CCN(C(=S)NCC(C)C)CC1	-10.9%	10µM*	23.4%	-3.6%	3.6%	1.8
COc1ccccc1N1CCN(C(C)C(=O)N2CC(C)OC(C)C2)CC1 (stereo not drawn)	-13.9%	28.2µM*	10.1%	-0.3%	-4.6%	-1.0
S=c1[nH]nc(-c2ccccn2)n1/N=C/c1ccc(Cl)c(Cl)c1	0.7%	·	?	11.8%	-3.2%	-7.7
O=C(COC(=O)c1ccc(O)cc1O)Nc1nnc(-c2ccccc2)o1	0.6%	0.7%	-0.7%	3.9%	5.0%	2.8
COc1ccc(OC)c(C2CC(=O)N3CN(c4ccc(C)c(Cl)c4)CSC3=C2C#N)c1 (stereo not drawn)	15.8%	6.31µM*	9.7%	-0.7%	i	-7.0
CCOC(=O)C1CCCN(Cc2ccccc2F)C1 (stereo not drawn)	-0.4%	2.82µM*	-0.4%	-2.2%	6.8%	-5.7
O=C(CSc1nnc(-c2ccccn2)o1)Nc1ccccc1F	-4.4%	·	8.1%	-4.3%	0.7%	9.3
Cn1c(=O)[nH]c(=O)c2c1[nH]c(=S)n2Cc1ccccc1	-1.6%	-14.7%[2.33 µM]	?	-27.2%	-0.8%	-1.2
C=CCSc1ccccc1C(=O)Nc1ncn[nH]1	-7.5%	·	4.5%	9.4%	-9.1%	-2.3
Cn1cccc1/C=C(\C#N)c1ccccc1	?	22.4µM*	0.5%	1.1%	-1.5%	-5.1
N[C@@H](CCC(=O)N[C@@H](CSN=O)C(=O)NCC(=O)O)C(=O)O	-14.2%	1.12µM*	-1.4%	-15.3%	i	-4.7
Cc1cc2c(cc1S(=O)(=O)N1CCN(c3cccc(C)c3C)CC1)OCCN2C	?	35.5µM*	16.4%	5.9%	-6.5%	-0.5
CCc1ccc(OCc2nnc(SCCN3CCOCC3)n2C)cc1	?	3.16µM*	-11.9%	-0.3%	0.9%	-5.4
Cn1cccc1-c1nc2ccccc2n1Cc1ccccc1	?	?	-0.4%	0.0%	-4.7%	-0.6
CCCCN(C)C(=O)C1CCN(Cc2ccccn2)CC1	-13.0%	5.62µM*	14.4%	-5.8%	i	5.4
O=C(CNCc1cccs1)Nc1cc(S(=O)(=O)N2CCCC2)ccc1Cl	2.6%	-123.2%[59 µM]	-8.7%	12.4%	i	-7.3
Cc1ccc(OCc2cc(C(=O)N(C)Cc3cnc4ccccn34)no2)cc1C	-7.1%	-11.1%	-25.3%	7.3%	-6.7%	0.9
CCOC(=O)N1CCC(N2CCN(S(=O)(=O)c3ccc(Cl)cc3)CC2)CC1	-6.5%	?	-7.0%	-12.0%	-2.1%	2.9
CN1/C(=C\C(=S)Nc2ccccc2)C(C)(C)c2ccccc21	14.9%	44.7µM*	13.3%	88.6%[activator]	i	-4.1
Cc1cccc(/C=N/NC(=O)CN2CCCCCCC2)c1	-4.4%	?	13.4%	-7.3%	-7.8%	-0.1
COc1ccc(NC2=C(Cl)C(=O)N(CCc3ccccc3)C2=O)c(OC)c1	-2.8%	?	18.1%	3.3%	-0.2%	4.0
Cc1cc(-c2csc(NC(=O)c3ccc(=O)[nH]c3)n2)c(C)n1Cc1ccco1	18.8%	·	-11.1%	0.5%	i	-61.8*
CCCn1nnc(NC(=S)NC(=O)C(C)(C)C)n1	-0.9%	2.24µM*	21.0%	-7.9%	-0.4%	-6.4
C=CCNCc1cccn1-c1ccccc1	-3.6%	8.91µM*	0.1%	2.9%	i	13.0
c1ccc(COc2ccc(OCCN3CCCCC3)cc2)cc1	6.8%	?	11.4%	-1.6%	1.4%	1.0
Nc1nc(NC(=O)CCCC(=O)O)nn1-c1ccccc1	-1.7%	9.3%[12.7 µM]	-0.5%	1.8%	-2.7%	0.8
COc1ccc(/C=C/C(=O)NC(=S)NNC(=O)c2cnccn2)cc1	-2.2%	-17.4%	15.5%	3.1%	-4.8%	-1.9
Cc1ccc(CNc2ncc(-c3ccccc3)n2C)o1	1.2%	·	0.8%	-8.0%	-4.4%	4.3
CC1CC(C)CN(CCOCCSc2ccccc2)C1 (stereo not drawn)	4.5%	?	-10.8%	7.2%	i	-5.5
CN(C)CCCNc1ncnc2scc(-c3ccccc3)c12	8.2%	3.98µM*	81.6%[activator]	2.9%	-3.0%	-3.3
CCC(C)NC(C(=O)Nc1ccc(Cl)c([N+](=O)[O-])c1)c1ccccc1 (stereo not drawn)	2.2%	?	9.8%	-13.7%	9.5%	8.4
O=C(O)C1CC(c2ccc(F)cc2)=NO1 (stereo not drawn)	·	12.6µM*	-14.1%	·	·	-0.9
Cc1cc(C)c(C)c(OCCCn2ccnc2)c1	22.6%	8.91µM*	-10.9%	-5.3%	-6.3%	11.4
COc1ccc(/C=N/c2c(-c3ccc(OC)cc3)nc3n2CCS3)cc1	0.1%	10µM*	6.1%	-2.0%	·	2.1
CCN(c1ccc(NC(=O)CSc2ccc3c(c2)OCCO3)cc1)C(C)C	0.1%	·	45.0%[activator]	10.2%	4.7%	-1.2
Cc1[nH]n(-c2ccccc2)c(=O)c1/C=N/NC(=O)c1ccccc1F	2.7%	-4.0%	37.9%[activator]	6.2%	-4.9%	-12.5
CCC/C=N/Nc1nnc(Cc2ccccc2)c(=O)[nH]1	-1.8%	17.4%	-24.6%	-8.7%	i	0.0
COC(=O)c1c(NC(=O)CN2CCN(c3ccccc3Cl)CC2)sc(C)c1C	-4.6%	?	-5.9%	-6.2%	i	4.3
CCCN1CCN(CC(=O)Nc2cc(OCC)ccc2OCC)CC1	-8.1%	?	-8.3%	11.9%	·	0.0
CCc1nc2ccccc2c(NC(=O)CN2CCC(C)CC2)c1C	-9.5%	2.82µM*	-2.2%	-1.2%	-9.4%	0.5
Cc1ccccc1CN(C)CCc1ccccn1	-4.0%	12.6µM*	3.1%	-2.9%	-2.4%	0.6
COc1ccc2c(c1)C(c1ccc([N+](=O)[O-])cc1)=NNC(c1ccco1)=N2	-1.1%	-1.4%[0.0925 µM]	9.6%	·	i	-0.5
